Screening results (PubChem BioAssay)
Menin MLL FP FL: menin-MLL binding inhibition, fluorescein peptide; 290,000 tested, under 10 active; FP activity change, % at 61.4 µM; Fluorescence polarization, fluorescein-MLL peptide displacement from menin; inconclusive = falling polarisation curve, or a change in total fluorescence; inactive = total fluorescence flat and polarisation flat or rising; no compound was filed as active; the % refers to the polarisation; negative = inhibition;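 also: % of control where 0% means no effect; inhibitors lower the polarisation; unlabelled MLL peptide was the positive control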
CtBP-E1A blk: inhibitors of CtBP/E1A interaction; AlphaScreen GST-E1A/His-CtBP binding, 1536-well; active compounds read low; control for the full effect not named in the record; activity change, % (test concentration not listed); hit rate 0.49% among 340,000; in the data active means activity change below about -65%; inconclusive means about -30% to -65%; inactive means above about -30%; also: % is scaled to controls: 0 for no effect and ±100 for the full control effect
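Steps: dispense buffer (Tris pH 8.0, NaCl 300 mM, TCEP 1 mM, BSA, Tween 20); add 5X protein mix (GST-E1A, His-CtBP, 125 nM each); pin 23 nL compound; 2 h at 37 °C, dark; add 5X beads (50 ug/mL); 1 h; read.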
TRPV1 PAM: human TRPV1 potentiation; Q8NER1; TRPV1-expressing cells, Fluo-8 calcium influx, capsaicin EC20 potentiation; host cell line not named in the record; control for the full effect not named in the record; potentiation, % at 8.33 µM; hit rate 0.02% among 320,000; active means potentiation above 80%; inconclusive means 30% to 80%; inactive means below 30%; also: 0% is about no effect
Target sequence (Q8NER1 whole entry, looked up): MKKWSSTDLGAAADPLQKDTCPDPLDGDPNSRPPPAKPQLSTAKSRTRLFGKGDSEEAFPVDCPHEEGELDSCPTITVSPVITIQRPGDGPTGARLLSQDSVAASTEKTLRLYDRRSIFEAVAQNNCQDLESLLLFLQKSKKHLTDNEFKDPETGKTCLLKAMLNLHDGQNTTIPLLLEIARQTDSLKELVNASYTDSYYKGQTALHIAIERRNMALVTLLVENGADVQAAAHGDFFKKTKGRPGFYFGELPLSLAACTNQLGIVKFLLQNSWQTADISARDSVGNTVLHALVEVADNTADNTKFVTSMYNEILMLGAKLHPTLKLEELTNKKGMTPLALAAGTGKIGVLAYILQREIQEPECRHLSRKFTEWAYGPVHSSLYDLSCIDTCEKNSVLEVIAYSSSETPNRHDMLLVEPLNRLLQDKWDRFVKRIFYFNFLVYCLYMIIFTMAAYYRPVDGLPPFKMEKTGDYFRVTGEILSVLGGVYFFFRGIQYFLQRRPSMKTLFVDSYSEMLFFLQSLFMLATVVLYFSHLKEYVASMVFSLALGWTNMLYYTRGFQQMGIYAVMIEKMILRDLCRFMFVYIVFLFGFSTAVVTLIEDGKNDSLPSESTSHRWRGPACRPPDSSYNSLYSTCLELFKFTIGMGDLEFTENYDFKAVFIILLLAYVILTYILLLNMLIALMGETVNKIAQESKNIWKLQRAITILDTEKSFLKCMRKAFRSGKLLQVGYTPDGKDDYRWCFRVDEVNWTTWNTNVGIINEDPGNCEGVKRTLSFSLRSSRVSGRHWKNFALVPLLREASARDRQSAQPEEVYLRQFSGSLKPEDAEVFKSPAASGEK
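Fluo-8 calcium influx in TRPV1-expressing cells, kinetic read (ex 480/em 520 nm). Compound added and read 3 min for agonist activity, followed by capsaicin at EC20 final and 2 min further read for enhancement.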
gsp antagonist: antagonists of gsp mutant (McCune-Albright syndrome); gsp-mutant cells, cAMP HTRF, 30 min; control for the full effect not named in the record; AID 624288; hit rate 0.4% among 340,000; Potency, µM (doses to about 76.9 µM), for inactives: at the highest dose activity change, negative = inhibition, hits mostly inhibitors; active = falling curve of any shape with a large fitted effect; inconclusive = falling curve, mostly with a smaller effect; inactive = flat or rising curve; cell line not stated here;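 also: intracellular cAMP measured with PDE inhibitor Ro 20-1724 present during compound exposure; potency is read from the fitted curve at half-maximal effect; % is scaled to controls: 0 for no effect and ±100 for the full control effect; nearly all actives have a fitted effect of over 65% in size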
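Cells in G418 medium, seeded 16-24 h, 37C; buffer exchange to DPBS + 1 mM CaCl2, 0.5 mM MgCl2, 0.05% BSA; cpds in DMSO + […] (300 uM stock), 30 min 37C; HTRF cAMP detection.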
ClpP mod: qHTS Assay for Activators of ClpP | ATP-dependent Clp protease proteolytic subunit (Bacillus subtilis (strain 168)), P80244 | hit rate 1.9% among 340,000 | Potency, µM (series often up to 57.5 µM), without a hit: at the top dose activity change, negative = active | purified B. subtilis ClpP, FRET peptide cleavage, 20 min; active = well fitted falling curve with a large enough effect; inconclusive = small, poorly fitted or top-dose-only effect; inactive = no such curve, though single readings can be large or run the other way; also: potency is read from the fitted curve at half-maximal effect; the source files actives as falling curves though it sought activators and does not explain the sign; nearly all actives have a fitted effect of over 65% in size; many hits overshoot -100%
Target sequence (P80244 whole entry, looked up): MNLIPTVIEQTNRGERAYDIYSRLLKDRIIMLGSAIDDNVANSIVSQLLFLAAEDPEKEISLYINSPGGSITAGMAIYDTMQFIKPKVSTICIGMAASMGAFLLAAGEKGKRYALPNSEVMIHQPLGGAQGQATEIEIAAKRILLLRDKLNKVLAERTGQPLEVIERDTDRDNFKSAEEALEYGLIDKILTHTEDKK
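Purified B. subtilis ClpP, 10 microg/mL final in Tris/HCl pH8 with KCl, BSA, glycerol and Tween-20, cleaved an Abz/nitrotyrosine-quenched decapeptide. Fluorescence (ex 320, em 430) was read at 0 and 20 min at room temperature. Delta was normalized to 5.8 microM ADEP and DMSO/no-enzyme controls.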
gsp ag: gsp mutant agonism | gsp mutant cells, cAMP HTRF, 30 min; control for the full effect not named in the record | Potency, µM (doses to about 76.9 µM), for the others: at the highest dose activation (cAMP increase), most hits filed as activators | hit rate 0.13% among 340,000; active = well fitted activation curve with a large enough effect; inconclusive = small, poorly fitted or top-dose-only effect, or another doubt; inactive = no such curve, though single readings can be large or run the other way; cell line not stated here;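 also: phosphodiesterase inhibitor Ro 20-1724 added with compounds to block cAMP breakdown; potency is read from the fitted curve at half-maximal effect; nearly all actives have a fitted effect of over 60% in size; about a fifth of the inactives were tested at one dose only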
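Cells stably selected in G418 were plated at 2000/well, grown 16-24 hr, then given compounds in DMSO with the PDE inhibitor […] (300 uM solution added) for 30 min at 37C; cAMP was read by HTRF.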
Sfp inh: Sfp phosphopantetheinyl transferase inhibition; AID 1490; Biochemical Sfp PPTase activity, qHTS; hit rate 3.5% among 310,000; Potency, µM, inactives show max response, negative = inhibition, actives largely listed as inhibitors; active = well fitted inhibition curve with a large enough effect; inconclusive = small, poorly fitted or top-dose-only effect, or another doubt; inactive = no such curve, though single readings can be large or run the other way;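 also: the enzyme is Sfp with the accession as filed and its product quenches rhodamine fluorescence; potency is read from the fitted curve at half-maximal effect; 0% = enzyme reaction without inhibitor and -100% = no enzyme wells; top concentration of the series not given in the record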
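Reaction rates are the 30-min fluorescence difference (ex 525, em 598 nm) in wells containing 15 nM Sfp, 5 uM rhodamine-CoA and 12.5 uM BHQ-2-YbbR at pH 7.6 with 10 mM MgCl2.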
* marks the source's active call; other numbers are inactive results; ? = inconclusive; . = no result given; & = joins results of further samples; [ ] = another dose, or the depositor's remark.

SMILES	Menin MLL FP FL	CtBP-E1A blk	TRPV1 PAM	gsp antagonist	ClpP mod	gsp ag	Sfp inh
CN1CCN(C(=O)c2ccc(CNS(=O)(=O)c3ccc(F)c(Cl)c3)cc2)CC1	.	-10	-13	-2%	-3.2%	1%	2%
CCOC(=O)c1ccc(NC(=O)CCOc2ccccc2)cc1	0.9	1	-6	4%	-0.4%	18%	-8%
CCn1c(CNc2ccc(Cl)cc2)nnc1SCC(=O)OC1CCCCC1	-0.5	-5	6	-27%	-1.2%	-15%	7%
O=C(NC1CCCC1)C1CCC(CNS(=O)(=O)c2cccs2)CC1 (configuration not stated)	-0.2	3	3	-13%	-2.1%	-7%	-2%
COc1ccnc(Oc2ccc(F)cc2)c1-c1ncn[nH]1	-5.0	3	-4	5%	.	1%	15%
COc1cccc2cc(C(=O)C3=C(O)C(=O)N(CCN4CCOCC4)C3c3ccc(C)o3)oc12 (configuration not stated)	5.0	-2	13	9%	-4.8%	-17%	-15%
c1ccc2c(-c3cc(C4CCNCC4)[nH]n3)cccc2c1	-4.1	-15	17	6%	0.0%	-3%[15.4 µM]	7%
C=CCSc1ccsc1C(=O)O	4.1	0	.	16%	0.3%	-4%	-3%
O=C(Nc1nnc(C2CC2)s1)c1cccc(S(=O)(=O)N2CCc3ccccc32)c1	5.4	5	1	-5%	-3.2%	15%	13%
CCOc1cc(N2CCOCC2)c(OCC)cc1NC(=O)c1ccc(OCc2c(C)noc2C)c(OC)c1	3.0	15	12	-8%	11µM*	-6%[15.4 µM]	0%
O=C(Nc1ccccc1)N1C(=O)C2(OCCO2)c2ccccc21	6.0	13	-7	7%	-0.3%	-4%[15.4 µM]	11%
O=C1C2CC=CCC2C(=O)N1c1ccc(NCCc2cccc(F)c2)c([N+](=O)[O-])c1 (configuration not stated)	8.2	-15	2	4%	-0.2%	21%	-15%
O=S1(=O)CCOC[C@H](CC2CCCCC2)N1Cc1ccc(Cl)cc1	5.9	-19	2	-10%	-2.1%&2.1%	-22%	29%
COc1ccc(CCC(=O)N2CCCC(Nc3ccc(C)c(C)c3)C2)cc1OC (configuration not stated)	-0.4	-9	4	5%	0.4%	4%	7%
Cc1c(C(=O)O)oc2c1ccc1ccccc12	6.2	-3	2	-38%	?	-5%	6%
CC(C)(C)c1ccc(OCCCC(=O)NNC(=O)c2ccccc2O)cc1	.	-14	24	-3%	.	-22%[15.4 µM]	.
N#CCCn1cc(/C=C(\C#N)c2nc3ccccc3s2)c(-c2ccc(F)cc2)n1	?	5	6	4%	12%	?	15%
O=C(Nc1ccc(Cl)c([N+](=O)[O-])c1)c1ccncc1	1.3	27	1	11%	1.0%	-24%	?
Cn1ncc(C#N)c1/N=C/N(Cc1ccccc1)Cc1ccccc1	1.1	1	-24	12%	-1.9%	13%	-2%
CCOc1ccc(NC(=O)COC(=O)c2ccc3c(c2)OCCO3)cc1	.	1	1	-6%	-1.6%	19%	.

Brought forward from above: two compounds; new compounds follow.
SMILES	Menin MLL FP FL	CtBP-E1A blk	TRPV1 PAM	gsp antagonist	ClpP mod	gsp ag	Sfp inh
Cn1ncc(C#N)c1/N=C/N(Cc1ccccc1)Cc1ccccc1	1.1	1	-24	12%	-1.9%	13%	-2%
CCOc1ccc(NC(=O)COC(=O)c2ccc3c(c2)OCCO3)cc1	.	1	1	-6%	-1.6%	19%	.
CC(OC(=O)C1CCC1)C(=O)Nc1cc(Cl)cc(Cl)c1 (configuration not stated)	.	9	-14	-3%	-7.0%	10%[15.4 µM]	.
Cc1cc(=O)n2nc(N3CCCC(C(=O)NCCC4=CCCCC4)C3)sc2n1 (configuration not stated)	3.6	-3	7	-1%	-29%	13%	1%
O=C(C1=NN[C@@H]2C(=O)N(c3cccc(C(F)(F)F)c3)C(=O)[C@H]12)c1cnccn1	6.4	0	-1	-6%	1.2%	0%[15.4 µM]	-25%
O=C(CSc1n[nH]c(-c2ccccc2)n1)Nc1ccc(Br)cn1	11	4	14	0%	0.5%	26%	16%
O=C(COc1ccc([N+](=O)[O-])cc1Cl)N(C1CCCCC1)C1CCS(=O)(=O)C1 (configuration not stated)	.	0	7	2%	-2.1%	-40%[inhibitor]	.
Cc1noc(C)c1CSc1nnc(-c2ccncc2)n1-c1cccc(Cl)c1C	2.2	0	25	-4%	-6.9%	?	-15%
COc1ccc(NC(=O)[C@H](C)NC(=O)C2CCN(S(=O)(=O)c3ccc(C)cc3)CC2)cc1	.	.	-4	7%	3.0%	1%	27%
CSc1nc(NCC(C)O)c2c3c(sc2n1)CN(C)CC3 (configuration not stated)	-20	.	-19	-11%	4.2%	20%	21%
Cc1ccc(S(=O)(=O)NNc2ccccc2)c(C)c1	1.1	12	1	-8%	-3.7%	-10%	18µM*
CCOc1ccccc1C(=O)N/N=C/c1cccc2cccnc12	-0.3	?	-7	-4%[15.4 µM]	-0.8%	-50%[inhibitor]	89µM*
CC1CCc2sc(NC(=S)NC(=O)c3ccccc3)c(C#N)c2C1 (configuration not stated)	8.2	-10	11	-14%	.	-1%[15.4 µM]	?
COc1ccc(C(=O)NCc2ccc3[nH]c(C)cc3c2)cc1OC	?	-2	16	-22%	1.6%	3%	-25%
COc1ccc(CNC(=O)Cn2cc([N+](=O)[O-])nc2C)cc1	0.5	6	6	4%	2.2%	-2%	1%
CCOC1=NN(c2ccccc2)C(=O)/C1=C\N(C)C	-0.6	-9	9	-3%	.	-13%	-4%
CCC(CC)NCCOC(=O)c1ccc([N+](=O)[O-])cc1	-11	.	4	8%	0.5%	-40%[inhibitor]	16%
COc1cc(C2=NC(CO)(CO)CO2)cc(OC)c1OC	-1.6	-1	-5	-8%	.	2%[15.4 µM]	7%
OC1CCN(C(=S)Nc2ccc(Oc3ccccc3)cc2)CC1	4.4	.	-22	5%	-3.2%	-134%[inhibitor]	-22%
Cc1cccc(CN2CCC(CNC(=O)Cn3ncc4c([nH]c5ccccc54)c3=O)CC2)c1	6.3	3	5	7%	-29%	-40%[inhibitor]	1%
O=C(NCc1nc2ccccc2[nH]1)c1c(F)c(F)c(F)c(F)c1F	1.4	-4	-7	-57%	.	17%[15.4 µM]	13%
COCCn1c(N)c(C(=O)Nc2sc3c(c2C(=O)OC)CCCC3)c2nc3ccccc3nc21	33[activator]	-21	.	8%	-0.2%	25%	?
O=C(COc1ccccc1)NNc1nc2c(F)cc(F)cc2s1	1.5	7	2	-2%	1.2%	-25%	20%
CCOC(=O)C1CCN(C(=O)c2c(-c3ccccc3)noc2C)CC1	2.5	-22	7	0%	-0.6%	-18%[15.4 µM]	-7%
COC(=O)n1c(=O)oc2ccc(S(=O)(=O)N3CCCCC3)cc21	0.2	6	.	13%	.	2%[15.4 µM]	14%
COc1ccc(C(=O)NCc2ccncc2)cc1S(=O)(=O)N1CCOCC1	.	5	2	4%	-2.7%	17%	.
Cc1ccc(CN2[C@@H](CC(C)C)COCCS2(=O)=O)cc1	.	4	.	-4%	0.7%	12%	.
CC(C)CNC(=S)NC(=O)c1ccccc1Cl	2.6	-14	5	13%	-1.0%	5%[15.4 µM]	24%
CN(C)CCNC(=O)CN1C(=O)COc2ccc(C(C)(C)C)cc21	0.5	5	6	11%	0.4%	-22%	11%
COc1ccc(C(=O)Nc2ccc(NC(=O)C3CCCCC3)nc2)cc1	3.4	8	-3	12%	.	7%[15.4 µM]	19%
O=c1c2ccccc2nc(-c2ccc(Cl)cc2Cl)n1O	-2.1	.	?	2%	.	-4%[15.4 µM]	?
O=C(CSc1nnc(Cc2ccccc2)o1)Nc1ccc(N2CCOCC2)cc1	.	9	.	9%	0.4%	14%	.
O=C(NCc1csc(-c2ccccc2)n1)c1ccco1	0.1	-7	12	-5%	-1.2%	14%	-29%
CCOc1ccc(C(CC(=O)O)NC(=O)C23CC4CC(CC(C4)C2)C3)cc1 (configuration not stated)	-1.6	3	?	-26%	0.7%	-4%	9%
CC(=O)/C=C\c1cn(-c2ncc(C(F)(F)F)cc2Cl)c2ccccc12	5.4	-1	-14	-8%	0.6%	0%	-2%
Cc1cc2c(c(=O)n1CC1CCCO1)C(c1ccco1)C(C#N)=C(N)O2 (configuration not stated)	1.6	0	-1	-2%	?	4%	-16%
Cn1c2c(c(=O)n(C)c1=O)C(C(F)(F)F)(C(F)(F)F)N=C(c1ccc(Cl)cc1)N2	-0.4	-17	-1	40µM*	-2.2%	-26%	17%
CO/N=C(\Cn1ncc(N2CCOCC2)c(Br)c1=O)c1ccc(Cl)cc1	-3.8	-10	-1	0%	-1.9%	-39%[inhibitor]	17%
CC(=O)C[C@@H](O)CC(=O)[C@@H]1OC(=O)CCCCCCCCc2ccccc21	.	5	.	-12%	-1.2%	-24%	.
CN(c1ccccc1)S(=O)(=O)c1ccc(NC(=O)C2CC2)cc1	1.0	5	-16	3%	0.5%	0%	11%
CCOc1cccc2sc(N(CCCN(C)C)C(=O)Cc3ccccc3)nc12	0.4	1	-8	5%	-1.5%	?	8%
O=C(O)c1ccccc1NS(=O)(=O)c1cccc(-n2sc3ccccc3c2=O)c1	.	-14	3	?	.	0%	2µM*
Nc1ccc(Cl)c(S(=O)(=O)Nc2cccc(Cl)c2)c1	0.8	4	-4	8%	0.0%	12%	0%
COc1ccccc1C(=O)N/C(=C\c1cn(S(=O)(=O)N(C)C)c2ccccc12)C(=O)N1CCOCC1	.	2	3	0%	0.7%	-24%	-6%
CCOC(=O)c1ccc(CC2SC(N)=NC2=O)cc1 (configuration not stated)	-0.2	0	16	5%	.	-33%[inhibitor]	3%
Cc1cc2c([nH]c3ccccc32)c2c1OC(C)(C)C=C2	4.8	-29	5	2%	-3.8%	.	27%
COc1ccccc1CNC(=O)C1CCN(S(=O)(=O)c2ccc3c(c2)C(C)(C)C(=O)N3C)CC1	3.4	-1	-5	-8%	-3.6%	-48%[inhibitor]	23%
COC(=O)C1=C(N)OC2=C(C(=O)CC(C)(C)C2)C1c1cc2c(cc1Cl)OCO2 (configuration not stated)	0.6	-10	-5	?	.	-58%[inhibitor]	-1%
